Screens as filed in PubChem.
A1 apoptosis 2: A1 inhibition read as caspase activation. MEF A1-2A-BIM cells, caspase-Glo luminescence, 3 h; percent of clofoctol response, DMSO zero. caspase activation, % (test concentration not listed). 24,000 tested, under 10 active. AID 2465; in the data active means caspase activation above about 5.9%;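 further: wells of about 30 µL received 50 nL stock; the first replicate is given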
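Material: A1-2A-BIM-expressing MEF cells. Buffer or medium: RPMI-1640 plus 10% FBS. Incubation: cells settled overnight, compound exposure 3 h at 37 °C, 5% CO2. Signal: Caspase-Glo 3/7 luminescence, 1 h at room temperature.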
Numbers without * were called inactive. Not all compounds are listed. The share of hits here may be higher or lower than overall.

Structure,A1 apoptosis 2
COc1ccc(S(=O)(=O)Nc2ccc3c(c2)C(=O)N([C@@H](C)CO)C[C@@H](C)[C@@H](CN(C)S(=O)(=O)c2ccc(C)cc2)OCCCC[C@H](C)O3)cc1,-0.7
CC(C)NC(=O)N(C)C[C@H]1Oc2ccc(NC(=O)c3ccncc3)cc2CC(=O)N([C@@H](C)CO)C[C@H]1C,-0.9
Cc1ccc(OC(=O)N(C)C[C@H]2OCc3cn(nn3)CCCC(=O)N([C@@H](C)CO)C[C@@H]2C)cc1,0.9
CC(C)NC(=O)Nc1ccc2c(c1)CC(=O)N([C@@H](C)CO)C[C@H](C)[C@@H](CN(C)C(=O)Nc1ccc(C(F)(F)F)cc1)O2,0.2
COc1ccc(NC(=O)Nc2ccc3c(c2)C(=O)N([C@@H](C)CO)C[C@@H](C)[C@@H](CN(C)Cc2ccc(C(F)(F)F)cc2)OCCCC[C@H](C)O3)cc1,-0.7
CNC[C@H]1OCCCC[C@H](C)Oc2ccc(NS(=O)(=O)c3c(C)noc3C)cc2C(=O)N([C@@H](C)CO)C[C@@H]1C,0.2
Cc1ccc(S(=O)(=O)N(C)C[C@H]2Oc3ccc(NC(=O)Nc4cccc5ccccc45)cc3CC(=O)N([C@@H](C)CO)C[C@H]2C)cc1,1.9
C[C@H]1CN([C@@H](C)CO)C(=O)Cc2cc(NC(=O)CCCN(C)C)ccc2O[C@H]1CN(C)Cc1ccc(-c2ccccc2)cc1,0.5
COc1ccc(S(=O)(=O)Nc2ccc3c(c2)C(=O)N([C@H](C)CO)C[C@H](C)[C@H](CN(C)C(=O)Nc2ccc(F)cc2)O3)cc1,-0.4
COc1ccc(NC(=O)Nc2ccc3c(c2)C(=O)N([C@H](C)CO)C[C@@H](C)[C@H](CN(C)Cc2ccncc2)OCCCC[C@H](C)O3)cc1,0.2
C[C@@H]1CN([C@H](C)CO)C(=O)c2cccc(NC(=O)Nc3ccc4c(c3)OCO4)c2O[C@@H]1CN(C)C(=O)Nc1ccc(F)cc1,-0.3
C[C@@H]1CN([C@H](C)CO)C(=O)c2cc(NC(=O)CCC(F)(F)F)ccc2O[C@@H](C)CCCCO[C@H]1CN(C)C(=O)c1ccncc1,0.1
C[C@H]1CN([C@@H](C)CO)C(=O)Cc2cc(NC(=O)Cn3cnnn3)ccc2O[C@H]1CN(C)Cc1ccccc1,0.8
COc1ccc(NC(=O)Nc2ccc3c(c2)C(=O)N([C@@H](C)CO)C[C@H](C)[C@@H](CN(C)S(=O)(=O)c2cccs2)OCCCC[C@@H](C)O3)cc1,-0.2
COc1ccc(Br)cc1/C=N/NC(=O)c1ccccn1,-0.4
C[C@H]1CN([C@@H](C)CO)C(=O)c2cccc(NC(=O)c3cnccn3)c2O[C@H]1CN(C)Cc1ccccc1,0.8
Cc1noc(C)c1NC(=O)Nc1ccc2c(c1)C(=O)N([C@@H](C)CO)C[C@H](C)[C@@H](CN(C)S(C)(=O)=O)O2,-0.4
COc1ccc(S(=O)(=O)Nc2cccc3c2O[C@@H](CN(C)Cc2ccc(Cl)c(Cl)c2)[C@H](C)CN([C@@H](C)CO)C3=O)cc1,0.3
C[C@@H]1CN([C@H](C)CO)C(=O)c2cc(NS(=O)(=O)c3cn(C)cn3)ccc2O[C@@H]1CN(C)Cc1ccc(-c2ccccc2)cc1,2.4
Cc1noc(C)c1S(=O)(=O)Nc1cccc2c1O[C@H](CN(C)Cc1ccc(C(=O)O)cc1)[C@@H](C)CN([C@H](C)CO)C2=O,0.0
COc1ccc(NC(=O)N(C)C[C@H]2OCCCC[C@H](C)Oc3ccc(NC(=O)Nc4cccc5ccccc45)cc3C(=O)N([C@@H](C)CO)C[C@H]2C)cc1,0.0
C[C@@H]1CN([C@H](C)CO)C(=O)c2cc(NC(=O)Nc3ccc4c(c3)OCO4)ccc2O[C@@H]1CN(C)C(=O)Nc1ccc2c(c1)OCO2,0.2
C[C@@H]1CN([C@@H](C)CO)C(=O)CCCn2nncc2CO[C@@H]1CN(C)S(C)(=O)=O,1.3
CNC[C@@H]1Oc2ccc(NS(=O)(=O)c3cccs3)cc2C(=O)N([C@H](C)CO)C[C@@H]1C,0.5
CC(C)NC(=O)N(C)C[C@@H]1Oc2c(cccc2N(C)C)C(=O)N([C@H](C)CO)C[C@H]1C,0.4
C[C@@H]1CCCCO[C@@H](CN(C)C(=O)C2CCCCC2)[C@@H](C)CN([C@@H](C)CO)C(=O)c2cc(NS(=O)(=O)c3ccc(Cl)cc3)ccc2O1,-1.4
C[C@@H]1CN([C@H](C)CO)C(=O)c2cc(NS(=O)(=O)c3cccs3)ccc2O[C@H]1CN(C)S(=O)(=O)c1ccc(Cl)cc1,-0.4
C[C@H]1CCCCO[C@H](CN(C)C(=O)NC2CCCCC2)[C@@H](C)CN([C@@H](C)CO)C(=O)c2cc(NC(=O)Nc3ccc(C(F)(F)F)cc3)ccc2O1,0.1
C[C@@H]1CCCCO[C@H](CN(C)Cc2ccncc2)[C@H](C)CN([C@@H](C)CO)C(=O)c2cc(NC(=O)c3ccncc3)ccc2O1,0.1
C[C@@H]1CCCCO[C@@H](CN(C)Cc2ccc(C(F)(F)F)cc2)[C@H](C)CN([C@@H](C)CO)C(=O)c2cc(NC(=O)C3CCCCC3)ccc2O1,0.8
C[C@H](CO)N1C[C@H](C)[C@H](CN(C)C(=O)Nc2ccc(F)cc2)Oc2ccc(NS(=O)(=O)c3ccccc3)cc2C1=O,-0.1
COc1ccc(NC(=O)Nc2cccc3c2O[C@@H](CN(C)C(=O)Nc2ccccc2)[C@@H](C)CN([C@H](C)CO)C3=O)cc1,-0.3
Cc1ccc(S(=O)(=O)Nc2cccc3c2O[C@@H](CN(C)C(=O)Nc2ccc(F)cc2)[C@@H](C)CN([C@H](C)CO)C3=O)cc1,0.6
CCCN(C)C[C@H]1OCCCC[C@@H](C)Oc2ccc(NC(=O)CCC(F)(F)F)cc2C(=O)N([C@H](C)CO)C[C@@H]1C,0.2
O=C(N1CCCCC1)[C@]1(Cc2ccccc2)N=C(c2ccc(OCCCO)cc2)O[C@@H]1c1ccccc1,-0.1
C[C@H]1CCCCO[C@@H](CN(C)C(=O)Cc2ccccc2)[C@@H](C)CN([C@@H](C)CO)C(=O)c2cc(NC(=O)c3ccncc3)ccc2O1,1.3
CC(C)NC(=O)Nc1ccc2c(c1)C(=O)N([C@@H](C)CO)C[C@@H](C)[C@H](CN(C)C(=O)Nc1ccc(C(F)(F)F)cc1)OCCCC[C@H](C)O2,0.0
C[C@@H]1CN([C@H](C)CO)C(=O)c2cc(NC(=O)CCC(F)(F)F)ccc2O[C@H]1CN(C)C(=O)Nc1cccc2ccccc12,0.1
C[C@H]1CCCCO[C@@H](CN(C)C(=O)CCC(F)(F)F)[C@@H](C)CN([C@@H](C)CO)C(=O)c2cc(NS(=O)(=O)c3cn(C)cn3)ccc2O1,0.1
C[C@@H]1CCCCO[C@@H](CN(C)C(=O)c2ccncc2)[C@@H](C)CN([C@H](C)CO)C(=O)c2cc(NS(=O)(=O)c3ccc(F)cc3)ccc2O1,1.0

Given with each value named: entries from further up
SMILES: C[C@@H]1CN([C@H](C)CO)C(=O)c2cc(NC(=O)CCC(F)(F)F)ccc2O[C@H]1CN(C)C(=O)Nc1cccc2ccccc12
  A1 apoptosis 2: 0.1

SMILES: C[C@H]1CCCCO[C@@H](CN(C)C(=O)CCC(F)(F)F)[C@@H](C)CN([C@@H](C)CO)C(=O)c2cc(NS(=O)(=O)c3cn(C)cn3)ccc2O1
  A1 apoptosis 2: 0.1

SMILES: C[C@@H]1CCCCO[C@@H](CN(C)C(=O)c2ccncc2)[C@@H](C)CN([C@H](C)CO)C(=O)c2cc(NS(=O)(=O)c3ccc(F)cc3)ccc2O1
  A1 apoptosis 2: 1.0

(continued)
Structure,A1 apoptosis 2
Cc1noc(C)c1NC(=O)N(C)C[C@H]1Oc2ccc(NC(=O)C3CC3)cc2CC(=O)N([C@@H](C)CO)C[C@H]1C,0.8
C[C@@H]1CN([C@@H](C)CO)C(=O)c2cccc(NC(=O)CCCCCC(=O)Nc3ccccc3N)c2O[C@@H]1CN(C)C(=O)Nc1ccc2c(c1)OCO2,-1.0
C[C@H]1CN([C@@H](C)CO)C(=O)c2cccc(NC(=O)c3nc4ccccc4s3)c2O[C@@H]1CN(C)CC1CCCCC1,0.7
COc1ccc(NC(=O)N(C)C[C@@H]2OCCCC[C@@H](C)Oc3ccc(NC(=O)NC4CCCCC4)cc3C(=O)N([C@H](C)CO)C[C@H]2C)cc1,-0.5
C[C@H](CO)N1C[C@H](C)[C@@H](CN(C)Cc2ccc3c(c2)OCO3)Oc2c(NC(=O)Nc3cccc4ccccc34)cccc2C1=O,0.2
C[C@H]1CN([C@@H](C)CO)C(=O)CCCn2nncc2CO[C@H]1CN(C)Cc1cccc(C(F)(F)F)c1,-1.8
C[C@@H]1CN([C@H](C)CO)C(=O)c2cc(NC(=O)Nc3ccc4c(c3)OCO4)ccc2O[C@@H]1CN(C)S(=O)(=O)c1cn(C)cn1,-0.1
Cc1noc(C)c1NC(=O)Nc1ccc2c(c1)C(=O)N([C@@H](C)CO)C[C@H](C)[C@H](CN(C)Cc1ccc(C(F)(F)F)cc1)OCCCC[C@@H](C)O2,0.8
C[C@@H]1CN([C@H](C)CO)C(=O)c2cc(NC(=O)Nc3ccc4c(c3)OCO4)ccc2O[C@@H](C)CCCCO[C@H]1CN(C)Cc1ccccc1,-0.4
C[C@@H]1CN([C@@H](C)CO)C(=O)c2cc(NC(=O)Nc3ccc(F)cc3)ccc2O[C@H]1CN(C)S(=O)(=O)c1cccs1,-0.3
C[C@@H]1CN([C@H](C)CO)C(=O)c2cc(NC(=O)c3ccncc3)ccc2O[C@H]1CN(C)S(=O)(=O)c1cn(C)cn1,0.2
C=CCOC(=O)C1=C[C@H](c2csc3ccccc23)[C@@H](CCCO)[C@H](OCC)O1,0.2
C[C@H](CO)N1C[C@H](C)[C@@H](CN(C)C(=O)Nc2cccc3ccccc23)Oc2ccc(NC(=O)Nc3ccccc3)cc2CC1=O,0.6
Cc1noc(C)c1NC(=O)N(C)C[C@@H]1Oc2ccc(NC(=O)NC3CCCCC3)cc2C(=O)N([C@@H](C)CO)C[C@H]1C,0.3
C[C@@H]1CN([C@H](C)CO)C(=O)c2cccc(NC(=O)Nc3ccc(F)cc3)c2O[C@H]1CN(C)S(=O)(=O)c1ccccc1,-0.5
O=C1CCC[C@@H]2c3[nH]c4ccccc4c3CCN12,0.0
COc1ccc(NC(=O)Nc2cccc3c2O[C@@H](CN(C)S(=O)(=O)c2ccc(Cl)cc2)[C@@H](C)CN([C@H](C)CO)C3=O)cc1,0.9
CNC[C@H]1Oc2c(NC(=O)Nc3c(C)noc3C)cccc2C(=O)N([C@@H](C)CO)C[C@H]1C,-0.8
COc1ccc(NC(=O)Nc2ccc3c(c2)C(=O)N([C@H](C)CO)C[C@H](C)[C@@H](CN(C)C(=O)Nc2ccc(OC)cc2)O3)cc1,-0.5
CC(C)NC(=O)Nc1ccc2c(c1)CC(=O)N([C@H](C)CO)C[C@H](C)[C@@H](CN(C)S(=O)(=O)c1cn(C)cn1)O2,0.1
C[C@@H]1CN([C@H](C)CO)C(=O)Cc2cc(NC(=O)Nc3ccc(C(F)(F)F)cc3)ccc2O[C@@H]1CN(C)Cc1ccncc1,0.4
Cc1noc(C)c1S(=O)(=O)N(C)C[C@@H]1OCCCC[C@H](C)Oc2ccc(N(C)C)cc2C(=O)N([C@@H](C)CO)C[C@H]1C,0.2
C[C@@H]1CN([C@@H](C)CO)C(=O)c2cc(NC(=O)NC3CCCCC3)ccc2O[C@@H](C)CCCCO[C@@H]1CN(C)C,-0.4
C[C@H](CO)N1C[C@H](C)[C@H](CN(C)C(=O)Nc2ccc(C(F)(F)F)cc2)Oc2ccc(NC(=O)CCCCCC(=O)Nc3ccccc3N)cc2C1=O,1.1
COc1ccc(CN(C)C[C@H]2Oc3ccc(NC(=O)NC4CCCCC4)cc3CC(=O)N([C@H](C)CO)C[C@@H]2C)cc1,0.1
CCCN(C)C[C@H]1OCCCC[C@H](C)Oc2ccc(NS(=O)(=O)c3ccc(OC)cc3)cc2C(=O)N([C@@H](C)CO)C[C@H]1C,0.3
C[C@@H]1CN([C@H](C)CO)C(=O)c2cccc(NC(=O)c3ccc(-c4nccs4)cc3)c2O[C@H]1CN(C)Cc1ccc(C(=O)Nc2ccccc2N)cc1,0.4
COc1ccc(CN(C)C[C@H]2Oc3ccc(NC(=O)Cc4cn(C)c5ccccc45)cc3C(=O)N([C@H](C)CO)C[C@@H]2C)cc1,-0.8
C[C@@H]1CN([C@@H](C)CO)C(=O)CCCn2cc(nn2)CO[C@@H]1CN(C)Cc1cccc(C(=O)O)c1,0.4
O=C(CCCCCC(=O)Nc1ccccc1O)N/N=C/c1ccccc1O,-0.3
COc1ccc(S(=O)(=O)N(C)C[C@H]2Oc3c(NC(=O)NC(C)C)cccc3C(=O)N([C@H](C)CO)C[C@H]2C)cc1,0.7
Cc1noc(C)c1NC(=O)N(C)C[C@H]1OCCCC[C@@H](C)Oc2ccc(NS(C)(=O)=O)cc2C(=O)N([C@H](C)CO)C[C@@H]1C,-0.4

Some of these compounds in order of heavy-atom count, falling:
Structure,A1 apoptosis 2
C[C@H](CO)N1C[C@H](C)[C@H](CN(C)C(=O)Nc2ccc(C(F)(F)F)cc2)Oc2ccc(NC(=O)CCCCCC(=O)Nc3ccccc3N)cc2C1=O,1.1
CCCN(C)C[C@H]1OCCCC[C@H](C)Oc2ccc(NS(=O)(=O)c3ccc(OC)cc3)cc2C(=O)N([C@@H](C)CO)C[C@H]1C,0.3
C[C@@H]1CN([C@@H](C)CO)C(=O)c2cc(NC(=O)NC3CCCCC3)ccc2O[C@@H](C)CCCCO[C@@H]1CN(C)C,-0.4
